VACV E9 pol inh: vaccinia E9 polymerase processive synthesis inhibition; normalized absorbance, % (test concentration not listed); in vitro processive DNA synthesis, absorbance read-out; active compounds read low; some inactives read as strong as hits; AID 493162; 46,000 compounds, 0.94% hits;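 active means replicate mean up to 90% and picked by the depositor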;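 further: 100% = median of the test wells of a plate; 100 nL library stock went into each well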
Starred values were filed as active, the others as inactive. A portion of the library, so the mix of outcomes need not match the whole.

Screening COC(=O)c1ccc(OP2(=O)COc3ccccc3OC2)cc1 returned VACV E9 pol inh 104.8.
For c1cncc(C2OCC3(CO2)COC(c2cccnc2)OC3)c1 (centres undefined) the results were VACV E9 pol inh 100.2.
CNc1ncc(Br)nc1Br was read as VACV E9 pol inh 87.4.
For O=C(NC(=O)c1ccccc1)c1ccccc1 the results were VACV E9 pol inh 101.8.
For O=C1C=C(NCCOC23CC4CC(CC(C4)C2)C3)C2(CCCCC2)O1 the results were VACV E9 pol inh 99.9.
Screening CC1(C)CC(=O)C(C=NCCN2CCN(C(=O)Nc3ccc(Cl)c(Cl)c3)CC2)=C(O)C1 returned VACV E9 pol inh 98.8.
For COc1ccc(S(=O)(=O)n2nccc2-c2ccc(-c3cccs3)s2)cc1OC the results were VACV E9 pol inh 99.5.
Cc1nnc(NC(=O)c2ccccc2Br)s1 was read as VACV E9 pol inh 88.0.
COc1ccccc1/C=C1\C(=O)Nc2ccccc21 was read as VACV E9 pol inh 100.0.
`CCc1ccc(Sc2cc(C(=O)NC3CC3)c3ccccc3n2)cc1` gave VACV E9 pol inh 101.2.
CC(C)(C)c1ccc(CNC(=O)C2CCCN2S(=O)(=O)c2ccccc2)cc1 (centres undefined) was read as VACV E9 pol inh 96.5.
`COc1ccc(-c2nn(C)c(=O)c3ccccc23)cc1CNC(=O)NC1CCCCC1` gave VACV E9 pol inh 99.9.
COc1cccc(NC(=O)c2cc(Cl)nnc2Cl)c1 was read as VACV E9 pol inh 94.6.
COC(=O)c1ccc(C(=O)OC)c(NC(=S)N2CC(C)CC(C)C2)c1 (centres undefined) was read as VACV E9 pol inh 102.4.
For CCCn1c(-c2nonc2N)nc2ccccc21 the results were VACV E9 pol inh 100.2.
O=C1c2ccccc2C(Nc2ccc3c(c2)OCCO3)N1c1ccccn1 (centres undefined) was read as VACV E9 pol inh 97.3.
For CCCCN(Cc1cc2cc(OC)ccc2[nH]c1=O)S(C)(=O)=O the results were VACV E9 pol inh 96.2.
For CCN(Cc1ccccc1)C(=O)Cn1c(SCc2ccc(F)cc2)nc2cccnc21 the results were VACV E9 pol inh 98.8.
For O=C(C(=C1NCCN1)n1ccnc1)c1ccc(Cl)cc1 the results were VACV E9 pol inh 97.5.
`Cc1ccc2[nH]c(=O)c3cc(C(=O)NCCN4CCN(c5ccccc5F)CC4)sc3c2c1` gave VACV E9 pol inh 91.0.

Pulled by compound from the list above (5):
For O=C(C(=C1NCCN1)n1ccnc1)c1ccc(Cl)cc1 the results were VACV E9 pol inh 97.5.
COc1ccccc1/C=C1\C(=O)Nc2ccccc21 was read as VACV E9 pol inh 100.0.
For CCN(Cc1ccccc1)C(=O)Cn1c(SCc2ccc(F)cc2)nc2cccnc21 the results were VACV E9 pol inh 98.8.
`CCc1ccc(Sc2cc(C(=O)NC3CC3)c3ccccc3n2)cc1` gave VACV E9 pol inh 101.2.
`COc1ccc(-c2nn(C)c(=O)c3ccccc23)cc1CNC(=O)NC1CCCCC1` gave VACV E9 pol inh 99.9.

Next section.
Cc1ccc2nc(NC(=O)c3ccccc3C(=O)O)sc2c1 was read as VACV E9 pol inh 90.6.
For CN(C(=O)COC(=O)c1cc2ccccc2cc1O)c1ccccc1 the results were VACV E9 pol inh 106.2.
Screening O=C(Cn1ncc2c1-c1ccccc1OC2)Nc1nccs1 returned VACV E9 pol inh 102.2.
O=C(c1cccs1)N1CCN(Cc2cccc(Cl)c2)CC1 was read as VACV E9 pol inh 99.7.
For O=c1oc2ccccc2cc1-c1nnc(-c2cccc3ccccc23)o1 the results were VACV E9 pol inh 100.5.
For CCC(=O)Nc1cccc(-c2nc3ccccc3s2)c1 the results were VACV E9 pol inh 100.2.
Screening COc1ccc(-c2ccc(CCC(=O)O)n2Cc2ccco2)cc1 returned VACV E9 pol inh 99.9.
For Cc1ccc(Oc2ccc(OCC(=O)Nc3ccncc3)cc2)cc1 the results were VACV E9 pol inh 107.8.
CCOC(=O)c1sc(SCc2ccccc2)c(S(=O)(=O)C(C)C)c1-n1cccc1 was read as VACV E9 pol inh 93.5.
Screening O=C(Cn1c2ccccc2c2cn[nH]c(=O)c21)NCCc1ccc(Cl)cc1 returned VACV E9 pol inh 81.6.
Screening CCOc1ccc(CCNC(=O)c2c(-n3cccc3)sc(C)c2C)cc1OCC returned VACV E9 pol inh 100.6.
`Cc1ccc(OCCNC(=O)c2ccccc2N)cc1` gave VACV E9 pol inh 100.7.
`O=C(CSc1nc2ccccc2c(=O)n1-c1ccccc1)N1CCCC1` gave VACV E9 pol inh 100.7.
`c1ccc(-c2nc(-c3cccs3)[nH]c2-c2ccccc2)cc1` gave VACV E9 pol inh 103.9.
Screening c1ccc(-n2ccnc2)c(-c2ncn[nH]2)c1 returned VACV E9 pol inh 106.8.
Cc1cc(NC(=O)C2CCCCC2)nc2c1c(=O)oc1ccccc12 was read as VACV E9 pol inh 99.6.
`Cc1c(O)ccc(-c2n[nH]c(C(F)(F)F)c2Oc2ccccc2)c1O` gave VACV E9 pol inh 93.0.
O=C1OC(c2ccccc2)OC(=O)C1=Cc1cccc(OCc2ccccc2)c1 (centres undefined) was read as VACV E9 pol inh 100.0.
Screening O=C(c1cc(-c2ccc(O)cc2)on1)N1CCN(Cc2ccccc2)CC1 returned VACV E9 pol inh 100.1.
`CCCC1CC(C)(C(=O)C[n+]2cccc(C(N)=O)c2)OC1=O` (centres undefined) gave VACV E9 pol inh 99.9.
For Cc1ccc(CCS(=O)(=O)c2ccc(C(C)C)cc2)c[n+]1C the results were VACV E9 pol inh 100.9.
For O=C(NCc1ccc(C(F)(F)F)cc1)c1ccc(Cl)cc1Cl the results were VACV E9 pol inh 102.8.
`Fc1ccc(-c2nnc(Cl)c3ccccc23)cc1F` gave VACV E9 pol inh 89.1.
Screening Cc1ccc2nc3ccc(NCc4ccccc4)nn3c(=O)c2c1 returned VACV E9 pol inh 81.4.
Screening Cc1ccc(C(=O)CSc2nc(C)cc(=O)[nH]2)cc1 returned VACV E9 pol inh 102.6.
For CC(=NCCc1ccccc1)C1=C(O)C(c2ccccc2)OC1=O (centres undefined) the results were VACV E9 pol inh 99.5.
COc1ccc(C2SCC(C(=O)NC3CCCCCC3)N2C(=O)Nc2ccc(C)c(C)c2)cc1 (centres undefined) was read as VACV E9 pol inh 100.8.
For CC(O)c1nc2ccccc2n1C/C=C/c1ccccc1 (centres undefined) the results were VACV E9 pol inh 111.9.
`Cc1sc(NC(=O)C(Cc2ccccc2)Cc2ccccc2)c(C#N)c1C` gave VACV E9 pol inh 100.4.
`CC(NC(=O)/C=C/c1ccc2c(c1)OCO2)c1ccccc1` (centres undefined) gave VACV E9 pol inh 100.0.
For CCOC(=O)c1oc2ccc3nc(N(C)C)sc3c2c1C the results were VACV E9 pol inh 100.7.
Screening Cc1cc(C)nc(SCc2cn3ccccc3n2)n1 returned VACV E9 pol inh 103.5.
Screening Oc1c(Cl)cc(Cl)cc1/C=N/c1nc2c(s1)CCCC2 returned VACV E9 pol inh 97.1.
CCc1cc(=O)oc2cc(OCC(=O)N3CCCc4ccccc43)ccc12 was read as VACV E9 pol inh 100.1.
Screening Cn1c2ccccc2n2c(=O)cc(-c3ccccc3)c(C#N)c12 returned VACV E9 pol inh 103.6.
`CCCCN(CC)C(=O)Cn1c(=O)n(Cc2ccccc2Cl)c(=O)c2cc(OC)c(OC)cc21` gave VACV E9 pol inh 87.2.
`CCNc1sc(S(C)(=O)=O)nc1S(=O)(=O)c1ccc(Cl)cc1` gave VACV E9 pol inh 90.5.
`COc1ccc(CN=Cc2ccnc(SCc3ccc(Cl)cc3Cl)n2)cc1` gave VACV E9 pol inh 98.7.
`O=C(CC1Nc2c3ccccc3nc(=S)n2C1=O)NCc1ccccc1` (centres undefined) gave VACV E9 pol inh 100.1.
CCCS(=O)(=O)N1CCN(c2cccc(Cl)c2)CC1 was read as VACV E9 pol inh 100.4.
`CCNS(=O)(=O)c1cc(-c2nnc(Nc3ccc(F)cc3)c3ccccc23)ccc1C` gave VACV E9 pol inh 100.1.
O=C1C=CC(=O)N1c1cccc2ccccc12 was read as VACV E9 pol inh 101.5.
`Cc1cc(-c2nc(-c3ccnn3S(=O)(=O)c3cccc(C(F)(F)F)c3)cs2)no1` gave VACV E9 pol inh 101.0.
Screening COc1ccc2oc(C)c(C(O)c3cc4ccccc4o3)c2c1 (centres undefined) returned VACV E9 pol inh 106.3.
Screening COc1ccc(-n2c(SCC(=O)c3ccc(Cl)cc3)nc3ccccc3c2=O)cc1 returned VACV E9 pol inh 99.8.
For CC1=NC(=O)/C(=C\c2ccc(O)cc2)N(C)N1c1ccccc1 the results were VACV E9 pol inh 100.3.
Screening CC(C)NC(=O)c1ccccc1NS(=O)(=O)c1ccc(F)cc1 returned VACV E9 pol inh 102.9.
`CC1(C)CC(CCNC(=O)c2ccccc2C(=O)O)(Cc2ccccc2)CCO1` (centres undefined) gave VACV E9 pol inh 94.8.
Screening O=C1c2ccccc2C(=O)N1CNN1CCCc2ccccc21 returned VACV E9 pol inh 100.8.
Screening C=CCn1cc(C=C2C(=O)N(C)C(=S)N(C)C2=O)c2ccccc21 returned VACV E9 pol inh 99.9.
Screening CCC(C(=O)O)n1nc(C)c2sc3ccccc3c2c1=O (centres undefined) returned VACV E9 pol inh 101.9.
For N#CC(Cc1ccccc1)Sc1ccccc1 (centres undefined) the results were VACV E9 pol inh 102.1.
O=S(=O)(CCCCl)NC1CCN(Cc2ccccc2)CC1 was read as VACV E9 pol inh 96.5.
O=C(c1cc2nc(-c3ccco3)cc(C(F)(F)F)n2n1)N1CCSCC1 was read as VACV E9 pol inh 95.5.
For COc1cccc(C(=O)Oc2ccc3oc(=O)sc3c2)c1 the results were VACV E9 pol inh 100.8.
`O=C(/C=C/c1ccco1)OC(C(=O)c1ccccc1)c1ccccc1` (centres undefined) gave VACV E9 pol inh 94.4.
`COc1cc(C2Nc3ccccc3S2)cc(OC)c1OC` (centres undefined) gave VACV E9 pol inh 103.3.
`CC(NC(=O)c1cccnc1)C(c1ccccc1)N1CCN(C)CC1` (centres undefined) gave VACV E9 pol inh 95.3.
Cc1ccc(Cn2c3ccccc3n3cc(C)nc23)cc1 was read as VACV E9 pol inh 100.1.
For O=C1CC(CS(=O)(=O)c2ccc(C(F)(F)F)cn2)=NN1c1ccccc1 the results were VACV E9 pol inh 103.2.

Compounds shown so far that contain a furan ring, fused or not (5):
Screening COc1ccc(-c2ccc(CCC(=O)O)n2Cc2ccco2)cc1 returned VACV E9 pol inh 99.9.
For CCOC(=O)c1oc2ccc3nc(N(C)C)sc3c2c1C the results were VACV E9 pol inh 100.7.
Screening COc1ccc2oc(C)c(C(O)c3cc4ccccc4o3)c2c1 (centres undefined) returned VACV E9 pol inh 106.3.
O=C(c1cc2nc(-c3ccco3)cc(C(F)(F)F)n2n1)N1CCSCC1 was read as VACV E9 pol inh 95.5.
`O=C(/C=C/c1ccco1)OC(C(=O)c1ccccc1)c1ccccc1` (centres undefined) gave VACV E9 pol inh 94.4.

The results go on.
`CC(=O)NO` gave VACV E9 pol inh 99.0.
For CC(C)c1ccc(NC(=O)CSc2n[nH]c(=O)n2C2CC2)cc1 the results were VACV E9 pol inh 87.8.
For CC(=O)Nc1ccc(OC(=O)c2ccccc2O)cc1 the results were VACV E9 pol inh 100.9.
Screening CCOC(=O)C(C(=O)Nc1cccc(C(F)(F)F)c1)C1CCCCC1 (centres undefined) returned VACV E9 pol inh 100.3.
For ClCc1cccc2c(CCl)cccc12 the results were VACV E9 pol inh 102.0.
For O=C1Nc2ccccc2C1c1ncc(C(F)(F)F)cc1Cl (centres undefined) the results were VACV E9 pol inh 110.7.
For O=C(CSc1nnc(-c2ccccc2)c(-c2ccccc2)n1)NCCC1=CCCCC1 the results were VACV E9 pol inh 101.6.
COc1ccc(/C=C2/Oc3ccccc3N(CC(=O)NC3CCCc4ccccc43)C2=O)cc1 (centres undefined) was read as VACV E9 pol inh 98.7.
For COc1ccc(Cc2nc(S(=O)(=O)c3ccc(C)cc3)c(NCc3ccccc3)o2)cc1 the results were VACV E9 pol inh 97.8.
c1ccc(Cn2c(-c3ccccc3)nc3ccccc32)cc1 was read as VACV E9 pol inh 102.8.
`O=S(=O)(Nc1cccnc1)c1ccccc1` gave VACV E9 pol inh 101.3.
`CCOc1ccc(C(=O)OCC(=O)Nc2cccc(Cl)c2)cc1` gave VACV E9 pol inh 109.5.
O=C(OCc1nc2ccccc2s1)c1cccc(Br)c1 was read as VACV E9 pol inh 102.1.
Screening Cc1ccc(Oc2ccc3c(c2)C(=O)N(CC(=O)O)C3=O)cc1 returned VACV E9 pol inh 99.8.
For CCN1CCN(C(c2ccccn2)c2c(C)[nH]c3ccccc23)CC1 (centres undefined) the results were VACV E9 pol inh 99.5.
For COc1ccc(CCNC(=O)CC(c2ccccc2)c2cccc(C)c2O)cc1OC (centres undefined) the results were VACV E9 pol inh 98.9.
`CC1CCc2c(sc(NC(=O)c3ccccc3)c2C(=O)N2CCCCC2)C1` (centres undefined) gave VACV E9 pol inh 94.6.
O=C1CSC(c2c(F)cccc2Cl)N1c1cccc(C(F)(F)F)c1 (centres undefined) was read as VACV E9 pol inh 99.2.
OC1(c2ccc(Cl)cc2)CSC(=S)N1Cc1ccco1 (centres undefined) was read as VACV E9 pol inh 98.6.
`COc1ccc(/C=C/C(=O)NCc2ccccc2)cc1` gave VACV E9 pol inh 99.9.
For COc1ccc2c(C)cc(Cl)nc2c1 the results were VACV E9 pol inh 90.6.
For COC(=O)c1cn(CCCOc2ccccc2OC)c2ccccc12 the results were VACV E9 pol inh 101.4.
Screening FC(F)=C(F)CCSC1=NCCN1 returned VACV E9 pol inh 113.6.
`CC1CC(C)CN(C(=O)c2sc3ccccc3c2Cl)C1` (centres undefined) gave VACV E9 pol inh 98.6.
Screening Cc1ccc(NC(=O)c2ccc3ncsc3c2)cc1 returned VACV E9 pol inh 98.3.
`O=S1(=O)CC(O)C(Nc2ccc(Cl)cc2)C1` (centres undefined) gave VACV E9 pol inh 90.3.
`N#Cc1ccc(CSc2cccc3cccnc23)cc1` gave VACV E9 pol inh 94.3.
C=C(C)CNc1nc(-c2ccccc2)c(-c2ccccc2)s1 was read as VACV E9 pol inh 99.8.
`O=C(O)CCCc1nc(-c2cnc3n(c2=O)CCS3)no1` gave VACV E9 pol inh 100.3.
